# TAR Tat displ: HIV-1 TAR-Tat binding disruption; HIV-1 TAR RNA, Tat peptide displacement FRET; active compounds read high; AID 1259389; z-score (no concentration beside the values); hit rate 0.6% among 100,000;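 also: score is relative to mean and SD of negative controls; some compounds called inactive have numbers as strong as hits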
# CDC25B-CDK2 inh: human CDC25B-CDK2/CyclinA binding inhibition. HTRF CDC25B-CDK2/CyclinA binding, anti-His/anti-Flag; active compounds read high. z-score (no concentration beside the values). hit rate 0.72% among 94,000. P30305+P24941. AID 1259370;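 also: score is relative to mean and SD of negative controls; strong numbers were not always called active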
# Active calls of the source: *; x = not tested or not shown.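 The calls were made as follows: active = z-score from 3 up in half or more of its runs; inactive = the rest.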
SMILES,TAR Tat displ,CDC25B-CDK2 inh
O=C(CSc1nc2ccccc2[nH]1)c1ccc(Cl)cc1,x,1.85
Clc1ccccc1CSc1nc2ncccc2[nH]1,0.67,0.25
Cc1cc(CNC(=O)Nc2ccc(F)c(Cl)c2)c(C)n1-c1ccccc1,-2.22,x
CCOC(=O)C1=C(C)NC2=C(C(=O)CC(C)(C)C2)C1c1coc2ccccc2c1=O (configuration not stated),0.71,-0.93
CCOc1ccc(Nc2cc(C)nc3nc(-c4ccco4)nn23)cc1,-0.01,x
Clc1ccc(-c2nnn3c2nc(NCC2CCCO2)c2ccccc23)cc1 (configuration not stated),2.47,-0.9
COc1cccc(CNc2nc3ccc(Cl)cc3n3cnnc23)c1,1.46,-0.88
Cc1cccc(-c2nc(CSCC(=O)O)c(C)o2)c1,0.44,x
O=C1CCC(C(=O)Nc2ccccc2)N1 (configuration not stated),1.98,-0.58
COC(=C(C#N)C#N)c1c(-c2ccccc2)noc1C,x,-1.88
COCCN(CCOC)Cc1c(C)[nH]c2ccc(C)cc2c1=O,-0.94,0.27
C=CCN1C(C(=O)c2ccccc2)=C(NC(C)=O)c2ccccc2S1(=O)=O,1.33,-0.31
CCOC(=O)NC(=O)CSc1nc(C)cc(C)c1C#N,-1.28,-0.44
Cc1ccsc1/C=C/c1nc(N)nc(-c2ccccc2O)n1,-6.21,-0.01
Cc1cc2c(cc1NS(=O)(=O)c1ccc(N3CCCC3=O)cc1)n(C)c(=O)n2C,0.81,x
CNC(=S)N[C@H]1[C@H](OC)O[C@H](COC(C)=O)[C@@H](OC(C)=O)[C@@H]1OC(C)=O,x,-1.1
CC1=C(c2ccc(Cl)cc2)S(=O)(=O)N=C1N1CCCC1,1.13,-2.09
O=C(NCc1ccco1)C1CCN(c2cnccn2)CC1,0.75,-1.97
O=C(NCCn1nc(-c2ccccc2)ccc1=O)c1ccccc1Br,1,x
COc1cc(OC)c2c(=O)c(-c3ccccc3)coc2c1,-0.19,x
COc1ccc(-n2c(C)cc(CNC(=O)Nc3ccc(OC)cc3OC)c2C)cc1,-2.08,x
Cc1cc(C)n(-c2n[nH]c(C)c2[N+](=O)[O-])n1,2.42,-0.55
COc1cc(Cl)c(NS(=O)(=O)c2ccc3c(c2)NC(=O)CC(C)S3)c(OC)c1 (configuration not stated),0.44,x
CC(=O)N1N=C(CSc2nnc(-c3ccccc3)n2-c2ccccc2)OC1c1cccs1 (configuration not stated),0.75,x
CC1(C)C(=O)OC(C(=O)c2ccc(Cl)cc2)C(C)(C)C1=O (configuration not stated),x,-1.3
CC(NC(=O)c1ccc(S(=O)(=O)N2CCCCC2)cc1)C12CC3CC(CC(C3)C1)C2 (configuration not stated),x,-4.25
Cc1ccc(NS(=O)(=O)c2ccc3c(c2)CC(C)N3C(=O)C2CCC2)cc1N(C)C (configuration not stated),-0.88,x
CCN1C(=O)COc2ccc(C(=O)O)cc21,0.56,x
Cc1ccc(S(=O)(=O)NCCc2csc3nc(-c4ccccc4C)nn23)s1,-0.14,x
CNc1ncnc2c1cnn2-c1ccc(F)cc1,0.59,x
Cc1ccc(S(=O)(=O)NCc2cccn2Cc2ccccc2C)cc1C,1.49,x
Cc1ccc(-c2nc3c(s2)CN(S(=O)(=O)c2cccc4nsnc24)CC3)cc1,1.37,x
CCOC(=O)NC(=S)c1ccc(OC)cc1,x,-0.37
CSc1ccccc1NC(=O)c1cnn2c1NC(c1cccs1)CC2C(F)(F)F (configuration not stated),0.28,2.87
CC1Cc2cc(S(=O)(=O)CCC(=O)NCc3ccco3)ccc2N1C(=O)C1CC1 (configuration not stated),0.53,x
CCCOc1ccc(Oc2nc(NCC(C)C)nc(NC(C)(C)C)n2)nn1,-0.52,-1.16
CCSc1nc2c(c(=O)[nH]1)C(c1cc(Br)ccc1OC)CC(=O)N2 (configuration not stated),1.33,-2.38
Clc1ccc(-c2noc(-c3cn[nH]c3-c3ccccc3)n2)cc1,x,-1.32
c1ccc(-c2csc3ncnc(NCCN4CCOCC4)c23)cc1,x,0.48
CC(=O)Oc1ccc(Cl)cc1C1=NN(C(C)=O)C(CCn2nnc3ccccc32)O1 (configuration not stated),1.3,x
Clc1ccc(-c2csc3ncnc(NCc4ccccn4)c23)cc1,-1.14,x
COCCCN(Cc1ccco1)C(=O)c1cc2c(s1)-c1ccccc1OC2,-0.15,-0.9
CN(C)c1ncnc2c1c(-c1ccccc1)cn2-c1ccc(Cl)cc1,-0.5,-1.39
O=C(O)c1cccc(Nc2nc3ccccc3n3cnnc23)c1,1.04,-0.4
COc1ccc(OC)c(-c2cc(C(N)=O)on2)c1,-1.84,-0.63
O=C(CCSCc1cnn(-c2ccccc2)c1-n1cccc1)NC1CC1,-1.99,-1.75
COc1ccc(C2C(C#N)=C(N)Oc3n[nH]c(C)c32)cc1CSc1nc2ccccc2o1 (configuration not stated),2.51,1.02
COc1ccc(Cl)cc1NC(=O)CSC1=NS(=O)(=O)c2ccccc2N1,0.66,x
Cc1ccc(N=Cc2ccc(N(C)C)cc2)cc1C,x,-1.97
O=C(NC1CCCc2ccccc21)C1CCN(c2cnccn2)CC1 (configuration not stated),2.1,-1.44
CN1C(C(=O)NC2CCCCC2)=CC(c2ccco2)=NS1(=O)=O,1.83,-1.49
CCc1[nH]nc2c1C(c1cc(OC)ccc1OC)C(C#N)=C(N)O2 (configuration not stated),-0.13,-0.64
O=C(Nc1ccccn1)c1noc2c1CSc1ccccc1-2,0.87,-0.9
CNc1ncnc2c1c(-c1ccccc1)cn2-c1ccccc1C,-1.04,0.6
CCc1cccc(NC2=NS(=O)(=O)C(c3cccc(Br)c3)=C2C)c1,1.03,-8.49
COCCNC(=O)Nc1ccc2nsnc2c1,-0.22,-1.18
COc1cccc(Nc2cc(C)nc3nc(-c4ccco4)nn23)c1,0.37,x
NC(=O)c1c(NC(=O)c2cc(-c3ccc(O)cc3)on2)sc2c1CCCC2,-2.68,-6.42
Cc1ccc(CCN2CC(C(=O)O)CC2=O)cc1 (configuration not stated),1.06,x
CC1=C(c2ccc(C(C)C)cc2)S(=O)(=O)N=C1Nc1ccc(Cl)cc1,0.87,-4.61

# (list continues)
SMILES,TAR Tat displ,CDC25B-CDK2 inh
Nc1nonc1-c1nc2ccccc2n1CC(=O)Nc1ccc(F)cc1,3.36,0.21
Fc1ccccc1CSc1nc2ncccc2[nH]1,0.88,x
Cc1ccc(-n2nnnc2CNS(=O)(=O)c2ccc(Cl)cc2)cc1C,0.24,x
O=C1c2ccccc2C(O)N1c1ccc(Cl)cn1 (configuration not stated),2.18,-1.82
COc1cc(-c2cc(OC)c3c(C)oc(C)c3c(=O)c2)ccc1OC(=O)c1cccc(C)c1,1,-1.33
COc1ccc2nc(NC(=O)Cn3cnc(S(=O)(=O)N4CCOCC4)c3)sc2c1,0.93,x
Cc1onc(-c2ccccc2)c1C(=O)NC1C(=O)N2C1SC(C)(C)C2C(=O)O (configuration not stated),0.32,x
Cc1nc(Nc2ccc3c(c2)OCCO3)nc2c1ncn2-c1ccc2c(c1)OCCO2,3.01,-2.76
Cc1cc(C)n(-c2cc(N3CCN(c4cc(Cl)ccc4C)CC3)ncn2)n1,1.07,x
Cc1ccc(C2Nc3ccc(C(=O)O)cc3C3C4CCC(C4)C23)cc1 (configuration not stated),1.42,-4.14
CSC1=C(C#N)C(O)(c2cccs2)N=C(C(F)(F)F)N1 (configuration not stated),x,-1.17
CC(C)Nc1ncnc2c1cnn2-c1ccc(Cl)cc1,1.56,x
O=C(Nc1ccc(Cl)c(C(=O)O)c1)c1ncn[nH]1,1.34,-0.29
CC(C)NC(=O)c1nc(-n2cnnc2)ccc1Br,1.37,x
COC(=O)C1C(=O)CC(C)(O)C(C(=O)OC)C1c1ccc(OC)c(OC)c1 (configuration not stated),-0.37,-0.14
CO[C@H]1C[C@@H]2CC[C@@H](C)[C@@](O)(O2)C(=O)C(=O)N2CCCC[C@H]2C(=O)O[C@H](C(C)C[C@@H]2CC[C@@H](O)[C@H](OC)C2)CC(=O)[C@H](C)/C=C(\C)[C@@H](O)[C@@H](OC)C(=O)[C@H](C)C[C@H](C)/C=C/C=C/C=C/1C (some centres not stated),0.97,x
CN1c2cc(Cl)ccc2-c2nc(SCC(=O)Nc3cccc(F)c3)ncc2S1(=O)=O,0.54,x
CCCCCOC(=O)C1=C(C)NC2=C(C(=O)CC(C)(C)C2)C1c1ccc(OC)c(OC)c1 (configuration not stated),-0.27,0.58
CCN=c1cc(N)n(CC)c2sc(C(=O)OCC)c(N)c12,x,-0.83
Fc1cccc(-c2nn3c(Cc4ccccc4)nnc3s2)c1,1.82,-0.47
c1ccc(-c2cc3c(N4CCc5ccccc54)ncnc3s2)cc1,x,0.02
Cn1c(=O)oc2cc(S(=O)(=O)N(Cc3ccccc3)C(=O)c3ccco3)ccc21,1.77,-0.71
CC(=O)N1CC(C)(C)c2cc(S(=O)(=O)Nc3cc(C)on3)ccc21,1.05,x
O=c1[nH]n(-c2ccccc2)c(=O)c2ccccc12,x,-1.45
Cc1nnc(NC(=O)c2cc(-c3ccc(Cl)cc3)nc3ccccc23)s1,x,-4.77
CCOC(=O)N1CCN(S(=O)(=O)c2cc3[nH]c4c(c3cc2CC)C(=O)CCC4)CC1,1.25,x
O=[N+]([O-])c1cc(S(=O)(=O)C(F)(F)C(F)(F)C(F)(F)F)ccc1Nc1ccccc1N=Cc1c(O)ccc2ccccc12,x,-2.73
O=C1CC(c2ccccc2)=Nc2ccccc2N1,-0.84,x
COc1ccc(-c2nc3ccccc3o2)cc1NC(=S)NC(=O)c1cc(OC)c(OC)c(OC)c1,x,-0.51
CN=C(C)/C(C(=O)OC)=C(/O)c1snnc1C,x,-1.04
COc1ccc(C2CC(=O)N3CN(Cc4ccco4)CSC3=C2C#N)c(OC)c1 (configuration not stated),-0.22,5.93*
CCOc1ccc(/C(O)=C2\C(=O)C(=O)N(c3nccs3)C2c2ccc(O)c(OC)c2)cc1 (configuration not stated),0.35,-1.57
Cc1cccc(Oc2coc3cc(OCC(=O)OC4CCCCC4)ccc3c2=O)c1,0.63,-2
CSc1ccc(CNC(=O)c2cnc3c(C)cccn3c2=O)cc1,0,x
CC(C)CCN1C(=O)C2C(C(=O)Nc3ccc(F)cc3)C3(C)C=CC2(O3)C1C(=O)NC1CCCCC1 (configuration not stated),2.76,x
COc1ccc(S(=O)(=O)N(CCS(=O)(=O)N2CCNCC2)Cc2ccc(F)cc2)cc1,0.81,x
COC(=O)c1cc(S(=O)(=O)NCCCc2ccco2)c[nH]1,0.99,x
COC(=O)c1c(C)oc2ccc(N(C(C)=O)S(=O)(=O)c3ccc4ccccc4c3)cc12,x,2.03
CCOc1ccc(OCC)c(NS(=O)(=O)c2c(C(=O)N3CCCC3)c(C)n(C)c2C)c1,1.4,x
O=C(O)c1ccc2c(c1)C(=O)N(C(Cc1ccccc1)C(=O)O)C2=O (configuration not stated),x,-0.39
Cc1cc(C)c(C#N)c(SCCS(=O)(=O)c2ccc(C(C)(C)C)cc2)n1,x,-0.74
C=CCNc1sc(S(=O)(=O)c2ccccc2)nc1S(=O)(=O)c1ccc(C)cc1,-1.11,-2.16
CCC(C)NC(=O)CCCn1nc(C)n2c(cc3occc32)c1=O (configuration not stated),2.26,-0.65
O=C(c1cnc2sc(N3CCCCC3)nn2c1=O)N1CCCC1,-0.47,x
O=C(/C=C/Sc1ccc(Cl)cc1)c1cccs1,x,-0.22
COCCN1C(=O)c2ccc(-c3ccco3)n2CC1(C)C(=O)NC1CCCCC1 (configuration not stated),-3.26,x
O=C(Nc1nnc2n1CCS2)C1c2ccccc2Oc2ccccc21,1.22,x
Cc1[nH]c2ccccc2c1C1(O)C(=O)Nc2ccccc21 (configuration not stated),0.67,1.19
Cc1ccc(-c2nc(-c3ccccc3Cl)no2)cc1,-1.36,-0.78
CC1(C)Cc2c(sc3nc(NCCCO)[nH]c(=O)c23)CO1,-0.29,-1.47
O=C(c1cc(-c2cccs2)on1)N(Cc1cccs1)C1CCS(=O)(=O)C1 (configuration not stated),0.71,-2.94

# In the list so far, 13 have a furan ring, fused or not.
SMILES,TAR Tat displ,CDC25B-CDK2 inh
CCOc1ccc(Nc2cc(C)nc3nc(-c4ccco4)nn23)cc1,-0.01,x
O=C(NCc1ccco1)C1CCN(c2cnccn2)CC1,0.75,-1.97
CC1Cc2cc(S(=O)(=O)CCC(=O)NCc3ccco3)ccc2N1C(=O)C1CC1 (configuration not stated),0.53,x
COCCCN(Cc1ccco1)C(=O)c1cc2c(s1)-c1ccccc1OC2,-0.15,-0.9
CN1C(C(=O)NC2CCCCC2)=CC(c2ccco2)=NS1(=O)=O,1.83,-1.49
COc1cccc(Nc2cc(C)nc3nc(-c4ccco4)nn23)c1,0.37,x
COc1cc(-c2cc(OC)c3c(C)oc(C)c3c(=O)c2)ccc1OC(=O)c1cccc(C)c1,1,-1.33
Cn1c(=O)oc2cc(S(=O)(=O)N(Cc3ccccc3)C(=O)c3ccco3)ccc21,1.77,-0.71
COc1ccc(C2CC(=O)N3CN(Cc4ccco4)CSC3=C2C#N)c(OC)c1 (configuration not stated),-0.22,5.93*
COC(=O)c1cc(S(=O)(=O)NCCCc2ccco2)c[nH]1,0.99,x
COC(=O)c1c(C)oc2ccc(N(C(C)=O)S(=O)(=O)c3ccc4ccccc4c3)cc12,x,2.03
CCC(C)NC(=O)CCCn1nc(C)n2c(cc3occc32)c1=O (configuration not stated),2.26,-0.65
COCCN1C(=O)c2ccc(-c3ccco3)n2CC1(C)C(=O)NC1CCCCC1 (configuration not stated),-3.26,x

# Single entries from the list.
# C=CCNc1sc(S(=O)(=O)c2ccccc2)nc1S(=O)(=O)c1ccc(C)cc1 in TAR Tat displ has -1.11
# Cc1cc(C)c(C#N)c(SCCS(=O)(=O)c2ccc(C(C)(C)C)cc2)n1 in CDC25B-CDK2 inh has -0.74
